# Source: PubChem BioAssay (Fisher Drug Discovery Resource Center)
# NPYLR7 agonist: mosquito NPYLR7 agonism; HEK293T NPYLR7/Galpha15, GCaMP6s calcium fluorescence; activation, % at 10 µM; 270,000 compounds, 0.15% hits; in the data active = activation above about 40%;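 also: 0% = vehicle and 100% = reference agonist at the receptor; some compounds past the cut are filed as inactive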
# NPYLR7 agonist max-min: also measured in NPYLR7 agonist; calls as there; activation, %; measured here: Max-Min RFU normalised activation; some inactives read as strong as hits;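 span of the calcium signal over five minutes; 0% = vehicle and 100% = native peptide agonist; compound fluorescence can raise it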
# Numbers without * were called inactive.
SMILES,NPYLR7 agonist,NPYLR7 agonist max-min
COCCNC(=O)C1CCCN(C2CCN(Cc3cnc(C)[nH]3)CC2)C1 (configuration not stated),-2,-7
CC1(Cc2ccccc2OC(F)(F)F)C(=O)Nc2ccc(-c3ccc(F)c(Cl)c3)cc21 (configuration not stated),3,1
CCN1C(=O)N(CCCc2cccnc2)C(=O)C12CCN(Cc1ccc3c(c1)Cc1ccccc1-3)CC2,9,0
Fc1ccc(C(c2ccc(F)cc2)N2CCN(Cc3cnc[nH]3)CC2)cc1,-11,-15
Cc1ccc(C(=O)N(C)C)cc1NC(=O)N1CC(C)OC(c2ccccc2)C1 (configuration not stated),2,0
CN(C)CCCN1C(=O)C2CC3=C(CC2C1=O)C(C)(C)CCC3 (configuration not stated),13,5
C=CCOc1ccccc1CN(CC)C(=O)[C@@H](C)N,11,1
CCCCCCCC(=O)N1CCc2sccc2C1c1ccc(F)cc1 (configuration not stated),-6,2
CCC(C)CN(CC(=O)N(Cc1ccccc1)Cc1cccs1)C(=O)Nc1cccc(Br)c1 (configuration not stated),3,6
COc1cccc(OCC2c3ccsc3CCN2C(=O)CN(CC2CCCO2)C(=O)C2CCCC2)c1 (configuration not stated),-6,0
CC(=O)NCC(=O)N1CCN(Cc2ccc(-c3noc(-c4ccco4)n3)cc2)CC1,33,22
Cc1cccc(Cn2ccnc2CN(C(=O)c2ccco2)C(C)C)c1,22,21
CN(C)S(=O)(=O)NC1CC(=O)N(CCc2ccccc2)C1 (configuration not stated),11,8
Cc1cccc(OCC(=O)N2CCN(c3ccccc3O)CC2)c1,1,1
Cc1cc(C)nc(NC(=O)NCCCSc2ncccn2)n1,11,5
COCCCN(Cc1cccc(OC)c1)Cc1cccn1Cc1ccccc1C,1,9
Cc1nc(N)[nH]c(=O)c1CCC(=O)OCC(C)C,4,3
CC(=NNC(=O)OC(C)(C)C)c1cccs1,4,2
CCCc1nc(CN(CC)C(=O)Cc2ccc3c(c2)NC(=O)CO3)no1,19,7
Cc1ccc(-n2ccnc(SCC(=O)NCCc3ccccc3)c2=O)cc1Cl,8,18
COc1ccc(NC(=O)C2CCN(C)C2)cc1OC(F)F (configuration not stated),8,2
CN(C)C(=O)c1nnn(-c2cccc(F)c2)c1C(F)(F)F,3,11
C[C@H](C(=O)NCC1CCOCC1)N1Cc2ccc(N3CCOCC3)nc2C1=O,8,3
Cc1cc(C(=O)N(Cc2ccccn2)c2nc3ccccc3s2)no1,6,2
CC(C)Cc1nc(-c2ccc(CN3CCN(C(=O)CCCNC(=O)OCc4ccccc4)CC3)cc2)no1,4,-4
COc1ccc(-n2cc(CNCCN3CCOCC3)c(-c3ccccc3Cl)n2)cc1,1,-3
CCOC(=O)C1=C(C)N(CC)C(=S)NC1c1ccc(NC(=O)Nc2ccccc2C(F)(F)F)cc1 (configuration not stated),-8,3
O=C(C1CCN(C(=O)[C@@H]2CCCN2C(=O)C2CCN(c3nccc(C(F)(F)F)n3)CC2)CC1)N1CCOCC1,11,3
O=C(CN1CCN(c2ccc(F)c(F)c2)C1=O)NCCC(c1ccccc1)c1ccccc1,4,2
CCc1ccc(N2C(=O)NC3CC2(C)Oc2ccc(C(=O)OC)cc23)cc1 (configuration not stated),-3,0
CN(Cc1ccc2ccccc2c1)C(=O)c1ccc(=O)[nH]n1,-1,-1
CSc1ccccc1NC(=O)CCC(=O)NCC1=CCCCC1,22,9
Cc1nc2c3ccccc3nn2c(C)c1CCC(=O)NC(C)c1ccc(F)cc1F (configuration not stated),-6,-7
CCC(O)(C#CCN1CCOCC1)CC,-1,1
Cc1ccc(-c2ccc(CCC(=O)N3CC=C(c4ccccc4)CC3)n2-c2ccc(CC#N)cc2)c(C)c1,2,-1
O=C(Cn1cncn1)NCc1ccccc1Sc1ccccc1,15,6
O=C(CCc1nnc(Cc2c[nH]c3ccccc23)o1)N1CCCCC1CCc1ccccn1 (configuration not stated),3,-1
COc1cc(C(=O)O)c(N)cc1OC(F)F,-5,-5
CCOC(=O)C1=C(O)/C(=C\c2ccc(N(C)C)cc2)SC1=Nc1ccc(Cl)cc1,13,12
Cc1ccc(C(=O)N(Cc2cccc(F)c2)c2ccc(CC(=O)O)cc2)cc1,5,1
CCN(C(=O)c1sc(Cc2ccc(F)cc2)nc1C)C(C)c1cccc(O)c1 (configuration not stated),0,0
CNC(=O)[C@@]1(OCc2cccc(F)c2)CC(OCc2ccc(C(F)(F)F)cc2)[C@H](O)[C@H](O)C1 (some centres not stated),2,15
O=C(NCc1ccccc1)c1cc2nc(-c3ccccc3)cc(C(F)(F)F)n2n1,-11,-13
Cc1nn(CCO)cc1CN1CCNC(C(=O)N2CCCC2)C1 (configuration not stated),-4,-1
COc1ccc(CCNC(=O)N2CCN(C(c3ccc(F)cc3)c3ccc(F)cc3)CC2)cc1,22,23
c1cnc(Oc2cccc(CNC3CCCCCC3)c2)nc1,4,1
C#CCSc1nnc(C)c(=O)[nH]1,-1,1
COc1ccc(-c2cn3nc(SCC(=O)N4CCc5ccccc54)ccc3n2)cc1,8,5
CCCc1ccc(S(=O)(=O)N2CCNCC2)cc1,-3,-4
COc1ccc(C(C)=O)cc1CN1C(=O)C(CCc2ccccc2)ON=C1c1cnccn1 (configuration not stated),11,5

# The list continues.
SMILES,NPYLR7 agonist,NPYLR7 agonist max-min
O=S(=O)(c1ccc(Cl)s1)N1CCC(c2nc3ccccc3o2)CC1,9,8
Cc1nc(Nc2ccc(NC(=O)c3cccc(F)c3)cc2)cc(-n2ccnc2)n1,-16,-20
O=C(CN1C(=O)c2c(Cl)c(Cl)c(Cl)c(Cl)c2C1=O)Nc1ccccc1,-6,-13
CCCCCNC(=O)c1cc(-c2ccccc2F)nc2cc(-c3ccccc3)nn12,-6,0
CC1CCN(Cc2nc3c(c(=O)n(C)c(=O)n3C)n2CCCO)CC1,1,28
CC(C)[C@H](CO)Nc1cnc(-c2cccc3cccnc23)cn1,3,3
O=C1N=c2ccc(Br)cc2=C1c1sc(NS(=O)(=O)Cc2ccccc2)nc1O,1,1
CC(C)N(CC(=O)N(Cc1ccc(F)cc1)Cc1ccco1)C(=O)Nc1ccc(Cl)cc1Cl,-3,0
Fc1ccc(SCc2csc(-c3c(F)cccc3F)n2)c(F)c1,25,29
OC(Cc1ccccc1)CN(Cc1ccc(F)cc1)Cc1ccsc1 (configuration not stated),27,29
O=[N+]([O-])c1cc2c(cc1/C=N\Nc1nc(-c3ccccc3)c3cc(Br)ccc3n1)OCO2,-5,-5
CCCCCCC(=O)Nc1c(-c2ccc(F)c(F)c2)nc2ccccn12,-9,-5
Cc1ccnc(Nc2ccc(N3CCN(C(=O)C4CCCO4)CC3)nn2)c1 (configuration not stated),9,1
Cc1ccc(NC(=O)C2(C)CCN2C(=O)Cc2ccc(C(C)(C)C)cc2)cc1C (configuration not stated),-3,-1
CC1CN(C)CCN1Cc1ccc(S(=O)(=O)N(C)C)o1 (configuration not stated),8,3
OC(CNC1CCCC1)COc1ccccc1-c1ccccc1 (configuration not stated),-5,-7
O=C(c1ccc(CSc2nnc(-c3ccncc3)n2-c2ccccc2F)cc1)N1CCOCC1,23,38
CN1CCC2(CC1)CN(C(=O)CC1NC(=O)c3ccccc31)CCN2C (configuration not stated),6,3
O=c1c2ccccc2nc(SCCCn2c(=O)[nH]c3ccccc32)n1CC1CCCO1 (configuration not stated),1,7
CN(C)S(=O)(=O)c1cccc(C2=NC(=Cc3ccc(F)cc3)C(=O)O2)c1,-1,-3

# 4 compounds from above, ordered by length of the SMILES, smallest number first.
SMILES,NPYLR7 agonist,NPYLR7 agonist max-min
Cc1ccc(C(=O)N(C)C)cc1NC(=O)N1CC(C)OC(c2ccccc2)C1 (configuration not stated),2,0
CN(C)S(=O)(=O)c1cccc(C2=NC(=Cc3ccc(F)cc3)C(=O)O2)c1,-1,-3
COc1ccc(C(C)=O)cc1CN1C(=O)C(CCc2ccccc2)ON=C1c1cnccn1 (configuration not stated),11,5
CNC(=O)[C@@]1(OCc2cccc(F)c2)CC(OCc2ccc(C(F)(F)F)cc2)[C@H](O)[C@H](O)C1 (some centres not stated),2,15

# (continued)
SMILES,NPYLR7 agonist,NPYLR7 agonist max-min
CC(C)[C@H](Nc1ccc(C(F)(F)F)cc1Cl)C(=O)Nc1ccc(C#N)cc1,0,-1
CCN1CC(CN(C)C(=O)c2cc(Cn3nc(C)cc3C)[nH]n2)CC1=O (configuration not stated),20,3
Cn1nnnc1Sc1nc(CN2CCOCC2)nc2scc(-c3cccs3)c12,-2,-3
COc1ccc(C(=O)N2CCN(C(=O)c3ccncc3)CC2)cc1,22,12
Cc1ccc(N=Cc2c(O)n(-c3ccc(Cl)c(Cl)c3)c(=S)[nH]c2=O)cc1,-5,-10
CCOc1cc(CNc2nn[nH]n2)ccc1OCc1ccccc1Cl,-16,-20
CCn1c(C2CCN(C(=O)c3ccc(C4CCCN4)s3)CC2)n[nH]c1=O (configuration not stated),10,8
CCc1ccccc1OCCN(C)C(=O)c1ccc(-n2cnnn2)cc1,5,3
CN(C)c1ccc(CNC(=O)c2cc(Br)c[nH]2)cc1,-4,-7
CC1=NC2=C(C(=O)CC(c3ccccc3)C2)C(c2ccc(F)cc2)C1C#N (configuration not stated),0,-1
O=C(O)c1ccc(Br)cc1I,-2,-6
CC1CCCN(CC(=O)Nc2ccc(N3CCCC3)cc2)C1 (configuration not stated),1,3
CN(C)c1cc(NCCN2CCCC(C(N)=O)C2)ncn1 (configuration not stated),0,-7
C=CCC1(O)C(C)C(c2ccccc2)N(C)C(c2ccccc2)C1C (configuration not stated),-13,-16
Cc1cccc(C=NN2CCN(Cc3ccc(C)cc3C)CC2)c1,1,-1
CCOC(=O)c1cc(C)nn1C1CCN(C(=O)c2cccc(OC)c2)CC1,-3,-3
COCCCN(Cc1c(-c2cccc(C)c2)noc1N1CCOCC1)C(=O)Cc1ccccc1,7,10
COc1ccccc1CCNC(=O)c1ccc(Cn2c(C)nc3ccccc32)o1,64*,61*
Cc1nnc(NC(=O)c2cc(=O)c(OCc3ccccc3)co2)s1,4,2
COc1ccc(-c2noc(C3CCN(S(=O)(=O)c4c(C)c(C)cc(C)c4C)CC3)n2)cc1,28,14
O=C(Cn1c(=O)oc2ccccc21)NC(c1ccc(F)cc1)c1cccs1 (configuration not stated),7,3
Cc1nc2cc(NC(=O)C3(C)CCN(C)C3)ccc2o1 (configuration not stated),2,2
COc1ccc(C2=NN(C(=O)CN3CCCCC3)C(c3ccccc3OC)C2)c(OC)c1 (configuration not stated),12,9
CCCCN(C(C)=O)c1c(CC)nc2ccc(C(=O)NC(C)(C)C)cn12,-2,-4
O=C(CSCc1ccccc1Cl)N1C[C@H](O)[C@@H](N2CCOCC2)C1,0,-4
Cc1nc(Cn2nc(C3CCNCC3)n(Cc3ccccc3)c2=O)co1,5,3
CC1CCCCN1C1CN(c2ccnc(C(=O)NCc3ccco3)c2)C1 (configuration not stated),2,1
Cc1cc(NC(=O)c2nn(-c3cccc(Br)c3)c3c2CCC3)n(C)n1,-3,-6
O=S(=O)(C1=Cc2ccccc2CC1)N1CCCC1c1ccc2c(c1)OCCO2 (configuration not stated),1,7
COc1ccc(OCC2CN(C(=O)c3cccc(OC)c3C)CCO2)cc1 (configuration not stated),6,20

# Brought forward from above: 4 entries; new compounds follow.
SMILES,NPYLR7 agonist,NPYLR7 agonist max-min
CC1CCCCN1C1CN(c2ccnc(C(=O)NCc3ccco3)c2)C1 (configuration not stated),2,1
Cc1cc(NC(=O)c2nn(-c3cccc(Br)c3)c3c2CCC3)n(C)n1,-3,-6
O=S(=O)(C1=Cc2ccccc2CC1)N1CCCC1c1ccc2c(c1)OCCO2 (configuration not stated),1,7
COc1ccc(OCC2CN(C(=O)c3cccc(OC)c3C)CCO2)cc1 (configuration not stated),6,20
CC1CN(C(=O)C(C)N2CCCC(Cn3cncn3)C2)CC(C)O1 (configuration not stated),7,7
Cc1nonc1C1CCCN1C(=O)CC12CC3CC(CC(C3)C1)C2 (configuration not stated),11,12
O=C(NC1CCS(=O)(=O)C1)c1cc(=O)c2ccccc2o1 (configuration not stated),2,0
Cc1cc2cc(CNC(=O)Cc3cccc4ccccc34)ccc2n1C,-1,1
C=C(C)Cn1c(=O)c2c(nc3n2CCN3c2ccc(OCC)cc2)n(C)c1=O,2,1
Cc1nc(-c2ccccc2)ncc1C(=O)N1CC[C@@H]2CC[C@H](C1)N2C,-2,-3
NC(=O)N/N=c1\oc2ccccc2cc1-c1nc2ccccc2[nH]1,-2,1
CN(C)CC(C)(C)CNC(=O)C1CCN(C(=O)c2noc(-c3cccc(F)c3)n2)CC1,6,3
COc1ccccc1CN(Cc1ccc2c(c1)OCO2)Cc1nc(C(=O)NCc2ccccn2)co1,30,33

# 3 records drawn at random from those above:
SMILES,NPYLR7 agonist,NPYLR7 agonist max-min
Fc1ccc(C(c2ccc(F)cc2)N2CCN(Cc3cnc[nH]3)CC2)cc1,-11,-15
COc1ccccc1CCNC(=O)c1ccc(Cn2c(C)nc3ccccc32)o1,64*,61*
CCc1ccc(N2C(=O)NC3CC2(C)Oc2ccc(C(=O)OC)cc23)cc1 (configuration not stated),-3,0

# The list is partial. The share of hits here may be higher or lower than overall.
